GLA inh pH 4.5: alpha-galactosidase A (human) inhibition, pH 4.5 | activity change, negative = inhibition, % at 105 µM | purified enzyme, 4-MU-alpha-Gal fluorescence, pH 4.5 | 230,000 tested, under 10 active | AID 1467; inconclusive = small, poorly fitted or top-dose-only inhibition, or a rising curve; inactive = flat fitted curve, though single readings scatter; no compound was filed as active;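 note: 0% = full activity with enzyme and -100% = basal without enzyme; dose as in the result columns while the protocol names 77 µM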
Target sequence (P06280 whole entry, looked up): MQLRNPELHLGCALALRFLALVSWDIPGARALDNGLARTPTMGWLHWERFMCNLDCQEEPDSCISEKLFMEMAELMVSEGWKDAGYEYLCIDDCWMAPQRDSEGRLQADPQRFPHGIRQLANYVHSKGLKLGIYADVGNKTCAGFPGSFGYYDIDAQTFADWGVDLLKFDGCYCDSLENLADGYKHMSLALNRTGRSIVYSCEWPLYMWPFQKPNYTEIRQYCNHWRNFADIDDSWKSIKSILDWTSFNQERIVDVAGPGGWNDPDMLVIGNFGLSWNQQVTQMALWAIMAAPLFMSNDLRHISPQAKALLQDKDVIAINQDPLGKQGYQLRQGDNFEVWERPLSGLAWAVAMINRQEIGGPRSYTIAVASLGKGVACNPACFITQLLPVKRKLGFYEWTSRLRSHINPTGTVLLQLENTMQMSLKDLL
Rango complex inh: Rango-importin beta binding inhibition; Rango CFP/YFP FRET sensor + importin beta, 45 min; Potency, µM (highest dose often 92.2 µM), for inactives: top-dose inhibition of complex formation; AID 540263; hit rate 0.031% among 340,000; active = rising FRET ratio curve, often small or poorly fitted; inconclusive = mostly compound fluorescence or quenching in the first reads; inactive = flat curves in all reads;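 note: potency is the fitted concentration of half-maximal effect; 0% = DMSO wells and 100% = buffer wells lacking importin beta; nearly all actives have a fitted effect of over 15% in size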
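FRET biosensor (snurportin 1 IBB flanked by EYFP and cerulean), 50 nM, with compound 5 min, then 0.125 microM importin beta in PBS, 1 mM DTT, 0.02% Tween-20, 0.1% BSA. CFP/YFP ratio read after 45 min at room temperature; pre-read flags interference.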
miR-21 reporter: miR-21 reporter, rising signal. HeLa miR-21 FLuc reporter, luciferase, 48 h. Potency, µM (series often up to 38.3 µM), inactives show at the top dose reporter change, positive = more light. 340,000 tested, under 10 active. AID 2288; active = well fitted rising curve with a large enough effect; inconclusive = small, poorly fitted or top-dose-only effect; inactive = no such curve, though single readings can be large or run the other way;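 note: % of control where 0% means no effect; miR-21 action dims this reporter so a rising signal means less miR-21 action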
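HeLa cells stably expressing CMV-driven firefly luciferase with a downstream miR-21 binding sequence, endogenously expressing miR-21, were treated with titrations (up to about 40uM final) for 48 hours at 37 degree Celsius. Luciferase luminescence was read after lysis.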
Rango dissoc inh: inhibitors of RanGTP-induced Rango-importin beta complex dissociation; O95149+P62826; Biochemical FRET Rango-importin beta, RanGTP-induced dissociation; Potency, µM (top dose mostly 46.1 µM), without a hit: at the highest dose activity change, negative = inhibition; hit rate 0.071% among 340,000; AID 540253; active means falling FRET ratio curve, often poorly fitted, with flat reads before Ran was added; inconclusive means other falling curves, or compound fluorescence or quenching; inactive means flat or rising ratio curve;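 note: potency is the fitted concentration of half-maximal effect; % of control where 0% means no effect; nearly all actives have a fitted effect of over 45% in size; -100% = wells without RanGTP and RCC1; the record marks most hits as doubtful in a second field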
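FRET read at 45 min, room temperature: inhibitors block the CFP/YFP signal rise when RanGTP (0.6 uM Ran, 2 mM GTP, 0.2 uM RCC1) frees Rango (0.1 uM) from importin beta (0.25 uM). Pre-read after 5 min compound exposure flags interference.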
The depositor's hits bear a star; ? = inconclusive; . = not tested or not shown; & = joins results of further samples; [ ] = another dose, or the depositor's remark. These rows are one share of the data. The share of hits here may be higher or lower than overall.

mol | GLA inh pH 4.5 | Rango complex inh | miR-21 reporter | Rango dissoc inh
Cc1ccccc1NC(=O)CSc1nnc2ccc(-c3ccncc3)nn12 | . | -0.5% | . | 14%
O=C1OCC2=C1C(c1ccc(F)cc1)CC(=O)N2c1ccc(F)cc1 (stereo unspecified) | 4 | . | 4% | .
CNCC(O)Cn1c2c(c3ccccc31)CCCC2 (stereo unspecified) | 8 | ? | -7% | -19%
CCN(CC)S(=O)(=O)c1ccc(N2CCOCC2)c(NC(=O)C(C)Oc2ccc(F)cc2)c1 (stereo unspecified) | . | 0.5% | . | -1%
O=C(NC1CCCCCCC1)c1ccc(F)cc1 | . | -2.1% | -58% | -5%
Cc1ccc2cc(C#N)c(NCc3ccccc3)nc2c1 | 0 | ? | 0% | -27%
O=C(NCC1c2ccccc2CCN1C(=O)CN1CCOCC1)C1CCCCC1 (stereo unspecified) | 4 | ? | -12% | -36%
N#CC(C(=O)NCCc1ccccc1)c1nc2ccccc2nc1N1CCCCC1 (stereo unspecified) | -11 | -1.9% | -3% | 16%
CCCN(CCC)c1ccc(C(O)c2nnc(-c3ccccc3)o2)cc1 (stereo unspecified) | -9 | -1.7% | 0% | -5%
COC(=O)C1CCN(C(=O)NC(C)(C)C)CC1 | -1 | 3.7% | -5% | -6%
COc1cccc(-c2nn(-c3ccccc3)cc2CN(C)Cc2ccon2)c1 | -5 | ? | -5% | 0%
Oc1[nH]c2ccc(Br)cc2c1N=Nc1nn[nH]n1 | -4 | 0.0% | 0% | -1%
Cc1ccccc1NC(=O)CSc1nc2ccccc2c2nc(CCn3cncc3C)nn12 | 4 | -0.4% | 19%&-12% | -6%
Cc1ccc(OCCC(=O)OCC(=O)Nc2ccc(C)c(S(=O)(=O)N3CCOCC3)c2)cc1 | . | 0.6% | . | 1%
COc1ccc(O)c(CN2CCN(C/C=C/c3ccccc3)CC2)c1 | 4 | 0.2% | 1% | -3%
Cn1cc(C(=O)NCC2COc3ccccc3O2)c(=O)c2cc(S(=O)(=O)N3CCCCC3)ccc21 (stereo unspecified) | 4 | 3.6% | 2% | -8%
O=C(Nc1cccc(S(=O)(=O)N2CCCC2)c1)c1cc(=O)[nH]c2ccccc12 | . | -2.8% | . | ?
CCOC(=O)c1ccc(NC(=S)N(CCCN2CCN(CC)CC2)Cc2cccs2)cc1 | -8 | 1.1% | -16% | -14%
CC(C)C(C(=O)OCC(=O)c1ccccc1)N1C(=O)C2C3C=CC(C3)C2C1=O (stereo unspecified) | -4 | 4.1% | 6% | 1%
COc1cccc2c1OC1(C)CC2NC(=O)N1Cc1ccccc1 (stereo unspecified) | -1 | -1.4% | 0% | -6%

Other entries follow:
mol | GLA inh pH 4.5 | Rango complex inh | miR-21 reporter | Rango dissoc inh
CN(C)CCNC(=O)Nc1ccc(Cl)c(Cl)c1 | 11 | 0.4% | -16% | 22%
CC(C)(C)OC(=O)C[C@H]1C/C=C\C[C@@H](CC(=O)N[C@@H](CO)Cc2ccccc2)C(=O)N2CCC[C@@H]2COC1=O | . | 2.5% | . | 1%
Cc1cc(C)c(C(=O)COC(=O)c2cccc(S(=O)(=O)NCc3ccccc3)c2)cc1C | -6 | 1.4% | -6% | -10%
Cc1cc[n+]2cc(-c3cccc([N+](=O)[O-])c3)c(-c3cccc([N+](=O)[O-])c3)cc2c1 | 7 | -0.6% | -1% | 4%
COc1ccccc1C1(O)CCN(CC(=O)Nc2c(C)nn(C)c2C)CC1 | -8 | -0.3% | -4% | 34%
O=C(Nc1nnc(-c2ccco2)s1)C1CCN(S(=O)(=O)c2ccc(Cl)cc2)CC1 | -2 | -3.6% | 5% | -4%
CCOc1ccc(S(=O)(=O)Nc2ccc3c(c2)OCO3)cc1 | . | 1.9% | 0% | 19%
CCS(=O)(=O)N1CCC(C(=O)Oc2ccc(Cl)cc2)CC1 | . | -1.0% | -1% | -8%
CC1=C(C(=O)Nc2ccccc2C)C(c2ccc(C)o2)N2C(=O)CSC2=N1 (stereo unspecified) | 3 | 0.5% | 0% | -9%
CCc1nc(OCc2ccccc2)c2sc3nc4c(cc3c2n1)COC(C)(C)C4 | 0 | 0.6% | -1% | -20%
Cn1cccc1C1NC(=O)c2c(sc3c2CCC(C(C)(C)C)C3)N1 (stereo unspecified) | 2 | -4.3% | -16% | -8%
CC(C)(C)CC(=O)Nc1nnc(CCc2ccccc2)s1 | . | -1.2% | -38% | 11%
Cn1c(O)c(N=NC(=O)CNC(=O)c2ccccc2)c2cc(Br)ccc21 | . | 1.0% | -3% | 8%
O=C(c1ccc(Cn2c(=S)[nH]c3cc4c(cc3c2=O)OCO4)cc1)N1CCN(c2ccccc2)CC1 | -5[21.1 µM] | 7.4% | -5% | 2%
c1ccc2cc(Cn3ccnc3)ccc2c1 | . | -0.8% | 0% | -8%
CCOc1ccc(C(=O)OCC(=O)Nc2ccc3c(c2)OCCO3)cc1OC | . | 0.3% | . | 16%
C/C(=N/NS(=O)(=O)c1ccc(Cl)cc1)c1cccc(NC(=O)c2ccncc2)c1 | . | -2.4% | -4% | 11%
COCCCNCCOc1ccccc1-c1ccccc1 | -1 | -4.4% | -3% | -13%
Fc1ccccc1Nc1nc(NCc2ccco2)nc(N2CCOCC2)n1 | -2 | 4.6% | -19% | 6%
CC(C)N(C(=S)NC1CCCCC1)c1ccccc1 | 1 | . | -2% | .

(cont.)
mol | GLA inh pH 4.5 | Rango complex inh | miR-21 reporter | Rango dissoc inh
CCOC(=O)N1CCN(C(=O)c2ccc3nc4ccsc4c(=O)n3c2)CC1 | 9 | 2.4% | -1% | -9%
O=C(Nc1cc2ccccc2oc1=O)C1CCCCC1 | 2 | -2.6% | -49% | -5%
COC(=O)c1ccccc1NC(=O)Cn1ccnc1 | -6 | 5.2% | 0% | -7%
O=C(NCCc1c[nH]c2ccccc12)C(=O)NCC1OCCCN1S(=O)(=O)c1cc(F)ccc1F (stereo unspecified) | -14 | 1.3% | 19% | 14%
CSc1cc(-c2ccc(Cl)cc2)[nH]c(=O)c1C#N | 13 | 3.3% | -3% | -18%
CCC(=O)N(Cc1ccco1)C1CC(=O)N(c2ccccc2)C1=O (stereo unspecified) | 5 | 1.8% | -6% | 16%
CC1CCCCN1C(=O)C(Cc1ccccc1)N1C(=O)C2CCCCC2C1=O (stereo unspecified) | 9 | -2.8% | -7% | -23%
CCCCc1cc2c(cn1)=C(OC(=O)c1cnc3ccccc3n1)C(C)(OC(=O)CC)C(=O)C=2 (stereo unspecified) | 8&-4 | 2.7% | 0% | -2%
COc1cc2ccccc2cc1C(=O)N1CCN(C)CC1 | 7 | 0.0% | -4% | 13%
CCCOC1OC(=O)c2c1ccc(OC)c2OC (stereo unspecified) | -1 | 2.4% | -5% | -1%
NC(=O)[C@@H]1CCCNc2c(F)cc([N+](=O)[O-])cc2C(=O)N[C@@H](CO)C(=O)N[C@@H](Cc2ccc(O)cc2)C(=O)N1 | -2 | 0.4% | -4% | 8%
Cc1ccc2cc(CCNC(=O)CCCc3ccccc3)c(=O)[nH]c2c1C | . | 4.8% | 0% | -3%
CC(CN1CCCCC1)OC(=O)c1ccccc1F (stereo unspecified) | . | 0.1% | 0% | 10%
COc1ccc(C(=O)N2CCC(C(=O)N3CCN(c4ccccc4)CC3)CC2)cc1 | . | -2.8% | . | -2%
Cc1ccc2c(c1)COc1c3ccc(C(=O)N4CCOCC4)cc3nn1-2 | -1 | 4.2% | -61% | 22%
CCOC(=O)N1CCN(S(=O)(=O)c2ccc3c(c2)NC(=O)CO3)CC1 | . | -1.7% | . | -13%
CCOc1ccc(N2C(=O)c3cccnc3C2Nc2ccc(Cl)cc2)cc1 (stereo unspecified) | -3 | -0.9% | -3% | 12%
CN(Cc1ccccc1)C(=O)COC(=O)C1CCN(S(=O)(=O)c2ccc3c(c2)OCCO3)CC1 | . | 0.8% | . | -1%
O=C(Nc1ccc(F)cc1)c1cccc(N2C(=O)c3ccccc3C2=O)c1 | . | 1.4% | -8% | 2%
Cc1nn2c(N3CCN(C)CC3)c3c(nc2c1-c1ccccc1)CCCC3 | -11 | 1.5% | -1% | -10%

The list continues:
mol | GLA inh pH 4.5 | Rango complex inh | miR-21 reporter | Rango dissoc inh
CN(CCC#N)C(=O)COC(=O)C1c2ccccc2Oc2ccccc21 | . | 5.1% | 0% | 8%
CC1CCCC(C)N1CCCNC(=O)C(=O)Nc1ccc2nc3n(c(=O)c2c1)CCCCC3 (stereo unspecified) | . | -0.1% | -7% | -1%
CC(=O)c1cccc(NC(=S)NC(=O)Cc2ccccc2)c1 | 2 | 0.7% | -9% | 0%
COc1cc(O)c2c(=O)c3c(O)c(O)ccc3oc2c1OC | . | 2.1% | . | 0%
O=C1N/C(=C/c2ccsc2)C(=O)N1c1ccccc1 | -3 | -0.8% | -21% | 9%
Nc1ccn(C2CCCO2)c(=O)n1 (stereo unspecified) | . | 0.8% | . | 3%
Cc1ccccc1Cn1nnc(-c2ccc3c(c2)OCO3)n1 | -2 | -1.0% | -70% | 14%
Cc1ccc2c(c1)C(O)(c1c(C)[nH]c3ccccc13)C(=O)N2 (stereo unspecified) | -7 | 0.9% | -2% | 5%
O=C(CN1C(=O)CSC1=O)Nc1ccc(F)c(F)c1F | 6 | 0.9% | -2% | 10%
CCCC1C(=O)Nc2ccccc2N1C(=O)c1ccc(C(C)(C)C)cc1 (stereo unspecified) | . | 0.8% | 24% | 16%
CCC[C@@H]1C[C@@]1(CCC)[C@@H](NP(=O)(c1ccccc1)c1ccccc1)c1ccc(C(=O)OC)cc1 | -12&-8 | -4.6% | ? | -12%
CSc1ccc(C2c3[nH]c4ccccc4c3CCN2C(=O)c2ccnn2C)cc1 (stereo unspecified) | -2 | -1.6% | -19% | 1%
Cc1ccc(CN2CCN(Cc3cccc(-n4cccn4)c3)CC2CCO)cc1 (stereo unspecified) | -3 | -3.6% | 0% | -4%
COc1ccc(S(=O)(=O)N2CCCOC2CNC(=O)C(=O)NCCc2ccco2)cc1 (stereo unspecified) | . | -3.2% | 3% | -15%
O=C(COC(=O)CNC(=O)c1ccc(Cl)cc1)Nc1ccc(Cl)cc1C(F)(F)F | 3 | -0.2% | -10% | 0%
N/C(=N\OC(=O)C1CCCCC1)c1ccc(Br)cc1 | . | -1.6% | -24% | 1%
O=c1[nH]c(Nc2nc3ccccc3o2)nc2c1CCCC2 | 3 | 0.0% | -41% | -3%
NC(=O)Cc1ccc(Nc2nnc(-c3ccc(O)cc3)c3ccccc23)cc1 | 0 | 0.3% | -4% | 3%
Cc1ccc(-n2ncc3c(NNC(=O)Cc4ccccc4)ncnc32)cc1 | -6 | -0.2% | -30% | -8%
O=C1CC(c2cccs2)c2cc3c(cc2N1)OCO3 (stereo unspecified) | 8 | -2.3% | -3% | -4%

Random excerpt: 2 records from the list, in no set order.
mol | GLA inh pH 4.5 | Rango complex inh | miR-21 reporter | Rango dissoc inh
COc1cc(O)c2c(=O)c3c(O)c(O)ccc3oc2c1OC | . | 2.1% | . | 0%
O=C1N/C(=C/c2ccsc2)C(=O)N1c1ccccc1 | -3 | -0.8% | -21% | 9%

Next part
mol | GLA inh pH 4.5 | Rango complex inh | miR-21 reporter | Rango dissoc inh
Cc1cccc(C)c1NC(=O)CCS(=O)(=O)c1cccc2nsnc12 | -2 | -1.2% | 0% | 8%
CCn1cc(C(=O)N2CCN(c3ccc([N+](=O)[O-])cc3)CC2)c(=O)c2ccc(C)nc21 | -2 | 3.8% | 12% | 5%
CCS(=O)(=O)Nc1cccc(C(=O)CC2(O)C(=O)Nc3ccccc32)c1 (stereo unspecified) | -1 | 0.4% | 5% | -1%
CC(C)Oc1ccc(C(CC(=O)O)NC(=O)c2cccs2)cc1 (stereo unspecified) | -8 | 2.2% | -5% | 4%
CCOc1ccc2nc(N3CCCC(C(=O)N4CCN(CC)CC4)C3)sc2c1 (stereo unspecified) | 1 | -4.3% | -16% | 10%
CCC(C)NC(=O)Cn1nc(C(F)(F)F)c2c1CCCC2 (stereo unspecified) | -11 | 2.6% | -5% | 29%
COCCCNC(=O)Cn1cnc2sc(C)c(S(=O)(=O)N3CCN(c4ncccn4)CC3)c2c1=O | 7[21.1 µM] | 0.4% | 0% | -7%
Cc1ccccc1NC(=S)N(Cc1cccs1)C1CCCCC1 | 11 | 4.4% | 5% | 10%

High-throughput results: PubChem BioAssay, National Center for Advancing Translational Sciences (NCATS)
